Compound activity (PubChem)
TRPML1 inh: human mucolipin-1 channel inhibition; TRPML1-inducible cells, Ca2+ dye fluorescence, FDSS; active compounds read low; inhibition of EC80 agonist-evoked calcium signal; actives 0.02% (n = 390,000); Q9GZU1; AID 624415; activity change, negative = inhibition, % (concentration not given with the values); in the data active means activity change below about -50%; inconclusive means about -30% to -50%; inactive means above about -30%;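 further: stimulus is agonist 54-4 at its EC80 concentration; on the % scale 0 is the no-effect control and ±100 the full control effect; the text of the record puts the active cut at -80%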
Target sequence (Q9GZU1 whole entry, looked up): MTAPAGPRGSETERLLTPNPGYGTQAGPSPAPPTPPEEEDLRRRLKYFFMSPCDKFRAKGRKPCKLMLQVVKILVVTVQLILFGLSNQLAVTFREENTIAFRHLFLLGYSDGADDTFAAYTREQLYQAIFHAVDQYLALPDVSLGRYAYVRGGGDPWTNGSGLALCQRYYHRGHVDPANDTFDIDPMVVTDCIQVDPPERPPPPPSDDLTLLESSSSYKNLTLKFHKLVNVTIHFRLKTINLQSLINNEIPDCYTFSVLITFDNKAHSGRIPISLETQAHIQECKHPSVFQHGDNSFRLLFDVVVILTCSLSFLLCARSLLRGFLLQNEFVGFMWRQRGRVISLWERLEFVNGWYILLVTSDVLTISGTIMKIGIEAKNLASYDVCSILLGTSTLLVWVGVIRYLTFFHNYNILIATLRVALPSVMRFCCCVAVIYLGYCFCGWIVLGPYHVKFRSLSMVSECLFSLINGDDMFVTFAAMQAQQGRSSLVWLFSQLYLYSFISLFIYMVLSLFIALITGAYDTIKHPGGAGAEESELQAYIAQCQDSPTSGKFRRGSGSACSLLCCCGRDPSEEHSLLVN
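TRPML1-DL cells, Tet-induced overnight (~16 h, 37 °C) at 1,500 cells/well, were loaded with Ca8 no-wash dye plus quencher for 45-90 min at room temperature. Compounds were pinned during FDSS kinetic reading; agonist 54-4 at EC80 (4 uM final) then added.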
TRPV1 potentiator: potentiators of human vanilloid receptor 1 (TRPV1); potentiation, % at 8.33 µM; actives 0.02% (n = 320,000); TRPV1-expressing cells, Fluo-8 calcium influx, capsaicin EC20 potentiation; host cell line not named in the record; control for the full effect not named in the record; Q8NER1; AID 540277; active means potentiation above 80%; inconclusive means 30% to 80%; inactive means below 30%; further: 0% is about no effect
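TRPV1-expressing cells were cultured overnight at 35.5C and loaded with Fluo-8 calcium dye for 40 to 90 min at room temperature. After a 10 s baseline, compound was added and calcium influx was read kinetically for 3 min (ex 480/em 520 nm).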
TRPML1 ag: activates the human TRPML1 channel; Q9GZU1; TRPML1-expressing cells, Ca2+ dye fluorescence, FDSS; host cell line not named in the record; reference of the full effect not given here; activation, % (no concentration beside the values); actives 0.12% (n = 410,000); AID 624414; in the data active = activation above about 50%; inconclusive = about 30% to 50%; inactive = below about 30%; further: 0% is about no effect; the text of the record puts the active cut at 80%
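Agonist activity was taken from a 110 s kinetic Ca2+ dye read on the FDSS after pinning compounds onto TRPML1-DL cells. The cells were seeded at 1,500/well with Tet inducer, incubated about 16 h, then dye-loaded at room temperature.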
CtBP-E1A inh: CtBP/E1A binding inhibition. AlphaScreen GST-E1A/His-CtBP binding, 1536-well; active compounds read low; control for the full effect not named in the record. activity change, % (test concentration not listed). actives 0.49% (n = 340,000). AID 651724; in the data active means activity change below about -65%; inconclusive means about -30% to -65%; inactive means above about -30%; further: on the % scale 0 is the no-effect control and ±100 the full control effect
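Homogeneous bead-based format: GST-tagged E1A captured on glutathione donor beads, His-tagged CtBP on nickel acceptor beads; compounds precede bead addition by 2 h at 37 °C.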
D2 potentiator: positive allosteric modulators of human D2 dopamine receptor; actives 0.23% (n = 360,000); AID 624464; DiscoveRx D2 beta-arrestin cells, luminescence, 90 min; 100% = 57 uM dopamine signal; potentiation, % (concentration not given with the values); active = potentiation of 50% or more; inconclusive = 30% to 50%; inactive = 30% or less;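 further: compound concentration not given in the record; tested on top of an EC20 dose of dopamine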
Target sequence (P14416 whole entry, looked up): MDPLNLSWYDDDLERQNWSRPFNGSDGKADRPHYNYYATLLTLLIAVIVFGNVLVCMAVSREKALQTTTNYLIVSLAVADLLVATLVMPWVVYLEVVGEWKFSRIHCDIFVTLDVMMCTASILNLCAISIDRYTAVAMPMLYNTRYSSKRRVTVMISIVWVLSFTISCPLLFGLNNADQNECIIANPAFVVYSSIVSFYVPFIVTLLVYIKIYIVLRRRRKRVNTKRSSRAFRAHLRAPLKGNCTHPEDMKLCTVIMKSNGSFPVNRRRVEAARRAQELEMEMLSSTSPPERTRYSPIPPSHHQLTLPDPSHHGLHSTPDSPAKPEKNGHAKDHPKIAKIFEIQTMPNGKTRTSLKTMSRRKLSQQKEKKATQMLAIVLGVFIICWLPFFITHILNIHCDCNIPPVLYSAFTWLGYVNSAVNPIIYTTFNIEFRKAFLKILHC
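PathHunter beta-arrestin assay in DiscoveRx D2 cells. Compounds were added with an EC20 of dopamine (50 nM final) for 90 min at 37 deg C. Luminescence was read 1 h after detection reagent, with 57 uM dopamine as the EC100 control.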
Six1-Eya2 inh: blocks human Six1 binding to Eya2 | Q15475+O00167 | AlphaScreen GST-Six1/His-Eya2 binding, biochemical; active compounds read low; control for the full effect not named in the record | activity change, % (concentration not given with the values) | actives 0.56% (n = 360,000) | AID 651725; in the data active = activity change below about -65%; inconclusive = about -30% to -65%; inactive = above about -30%; further: on the % scale 0 is the no-effect control and ±100 the full control effect
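AlphaScreen with GST-Six1 and His-Eya2 (5X mix: 250 nM and 500 nM), glutathione donor and nickel acceptor beads; buffer 50 mM Tris pH 8.0, 300 mM NaCl, 1 mM TCEP; 1 h at 37 C in the dark.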
* marks the source's active call; other numbers are inactive results. No enrichment for hits; about 0.95% have a hit in one of these screens.

Nc1nnc(CC(=O)N/N=C\c2ccc(-c3cccc(Cl)c3)o2)s1 was read as TRPML1 inh 5, TRPV1 potentiator 9, TRPML1 ag 0.7, CtBP-E1A inh -15, D2 potentiator -15 and Six1-Eya2 inh -14.
Screening S=c1[nH]ccc2ccccc12 returned TRPML1 inh -1, TRPML1 ag -0.3, CtBP-E1A inh 5, D2 potentiator -3 and Six1-Eya2 inh -5.
Screening O=C(CSc1nncn1-c1cccnc1)Nc1ccccc1[N+](=O)[O-] returned TRPML1 inh -7, TRPV1 potentiator 2, TRPML1 ag -0.5, CtBP-E1A inh -20, D2 potentiator -2 and Six1-Eya2 inh -1.
`COc1ccc(OCCOC(=O)CNC(=O)c2ccc(Cl)cc2Cl)cc1` gave TRPML1 inh -3, TRPV1 potentiator 13, TRPML1 ag 0.3, CtBP-E1A inh 15, D2 potentiator -14 and Six1-Eya2 inh -1.
O=C(CCc1c[nH]c2ccccc12)NCC(=O)Nc1ccc(F)c(F)c1F was read as TRPML1 inh -14, TRPV1 potentiator 2, TRPML1 ag 0.0, CtBP-E1A inh -2, D2 potentiator 3 and Six1-Eya2 inh 0.
CN(C)S(=O)(=O)c1ccc(-c2ccccc2)cc1 was read as TRPML1 inh 2, TRPV1 potentiator -6, TRPML1 ag 23, CtBP-E1A inh 9, D2 potentiator 15 and Six1-Eya2 inh 11.
For CCOc1ccc(CCNC(=O)CCC(=O)Nc2ccc3nc(N4CCN(C)CC4)cc(C)c3c2)cc1OCC the results were TRPV1 potentiator 12, CtBP-E1A inh -14, D2 potentiator -14 and Six1-Eya2 inh -1.
For O=C(O)/C=C/c1ccccc1Oc1ccc(Cl)cc1Cl the results were TRPML1 inh 1, TRPV1 potentiator -5, TRPML1 ag 0.7, CtBP-E1A inh -15, D2 potentiator -2 and Six1-Eya2 inh -5.
`CC(C)(C)S(=O)N1Cc2cc(C(=O)NCc3ccc4c(c3)OCO4)nc(-c3cccc(-c4ccncc4)c3)c2[C@H]1CCO` (stereo partly specified) gave TRPML1 ag -0.2, CtBP-E1A inh -3, D2 potentiator -2 and Six1-Eya2 inh -8.
CCOC(=O)N1CCN(C(=O)c2ccc(NS(=O)(=O)c3ccc(F)cc3)cc2)CC1 was read as TRPML1 inh 0, TRPV1 potentiator 3, TRPML1 ag 4.4, D2 potentiator inconclusive and Six1-Eya2 inh 2.

The last two records of the section above come first, to join the parts.
`CC(C)(C)S(=O)N1Cc2cc(C(=O)NCc3ccc4c(c3)OCO4)nc(-c3cccc(-c4ccncc4)c3)c2[C@H]1CCO` (stereo partly specified) gave TRPML1 ag -0.2, CtBP-E1A inh -3, D2 potentiator -2 and Six1-Eya2 inh -8.
CCOC(=O)N1CCN(C(=O)c2ccc(NS(=O)(=O)c3ccc(F)cc3)cc2)CC1 was read as TRPML1 inh 0, TRPV1 potentiator 3, TRPML1 ag 4.4, D2 potentiator inconclusive and Six1-Eya2 inh 2.
For CCOc1ccc(CCNC(=O)CN2C(=O)NC3(CCCCCC3)C2=O)cc1OCC the results were TRPML1 inh -10, TRPV1 potentiator 0, TRPML1 ag -0.5, D2 potentiator -7 and Six1-Eya2 inh 1.
For O=C(Nc1ccc(C(F)(F)F)cc1)C1(c2ccccc2)CC1 the results were TRPML1 inh -20, TRPV1 potentiator 13, TRPML1 ag 4.5, CtBP-E1A inh 10, D2 potentiator -6 and Six1-Eya2 inh 30.
`CC(=O)Nc1ccc(NC(=O)C2CCN(C(=O)c3cccs3)CC2)cc1` gave TRPML1 inh -11, TRPV1 potentiator 11, TRPML1 ag 0.9, D2 potentiator -5 and Six1-Eya2 inh 2.
For CCCCN(C(=O)Cn1nnc2ccccc21)C(C(=O)NCCOC)c1cccs1 (stereo unspecified) the results were TRPML1 inh -9, TRPV1 potentiator 23, TRPML1 ag 0.7, CtBP-E1A inh 1, D2 potentiator 3 and Six1-Eya2 inh 3.
For CC(=NO)c1ccc2c(c1)Cc1cc([N+](=O)[O-])ccc1-2 the results were TRPML1 inh 30, TRPML1 ag 1.2, CtBP-E1A inh inconclusive, D2 potentiator 26 and Six1-Eya2 inh -25.
For NNC(=O)c1ccc(COCC(F)(F)C(F)F)cc1 the results were TRPML1 inh -5, TRPV1 potentiator -27, TRPML1 ag 3.8, CtBP-E1A inh 4, D2 potentiator 0 and Six1-Eya2 inh -3.
Screening O=C(CC12CC3CC(CC(C3)C1)C2)NCc1ccncc1 returned TRPML1 inh -1, TRPV1 potentiator -9, TRPML1 ag 0.5, CtBP-E1A inh -10, D2 potentiator -5 and Six1-Eya2 inh -2.
`O=S(=O)(N/N=C\C=C\c1ccccc1)c1ccc(Br)cc1` gave TRPML1 inh 3, TRPV1 potentiator -8, TRPML1 ag 0.2, CtBP-E1A inh 1, D2 potentiator -17 and Six1-Eya2 inh -4.
`COc1ccc(Cc2nc3c([nH]2)c(=O)n(C)c(=O)n3C)cc1OC` gave TRPML1 inh inconclusive, TRPML1 ag 0.1, CtBP-E1A inh 3, D2 potentiator -1 and Six1-Eya2 inh -10.
Screening Cc1ccc(-c2nc3c4ccccc4ccn3c2CC2CCCCC2)cc1 returned TRPML1 ag 0.3, CtBP-E1A inh -20 and Six1-Eya2 inh 12.
`Cc1cc(NC(=O)c2ccc(Cl)cc2Cl)n(-c2ccccc2)n1` gave TRPML1 inh -5, TRPML1 ag -0.2, CtBP-E1A inh -1, D2 potentiator -63 and Six1-Eya2 inh 4.
`O=C(NCc1ccccn1)c1ccc(S(=O)(=O)Nc2ccccc2F)cc1` gave TRPML1 inh -1, TRPV1 potentiator inconclusive, TRPML1 ag -0.2, CtBP-E1A inh -9, D2 potentiator -15 and Six1-Eya2 inh -3.
CCSc1nc(-c2ccc(OC)cc2)cc(-c2ccccc2)c1C#N was read as TRPML1 inh -1, TRPV1 potentiator 10, TRPML1 ag 0.3, CtBP-E1A inh 9, D2 potentiator -6 and Six1-Eya2 inh 11.
`C=C1C(=O)CC2=C1[C@](Cc1ccc(F)cc1)(C(=O)OC)N(C(=O)c1ccccc1)C2` gave TRPML1 ag 0.3, CtBP-E1A inh 4 and Six1-Eya2 inh 8.
CC(=O)NC(CCS(C)(=O)=O)C(=O)N1CCc2ccccc21 (stereo unspecified) was read as TRPML1 inh 25, TRPV1 potentiator 5, TRPML1 ag 0.6, CtBP-E1A inh 6, D2 potentiator 6 and Six1-Eya2 inh 7.
Screening Cc1ccc(S(=O)(=O)N(C)C)cc1NC(=O)COC(=O)/C=C/c1ccc2ccccc2n1 returned TRPML1 inh 34, TRPV1 potentiator 26, TRPML1 ag 0.5, CtBP-E1A inh -17, D2 potentiator -20 and Six1-Eya2 inh -13.
Screening Cc1cc(N2CCN(C(=O)c3ccco3)CC2)nc(-c2ccccc2)n1 returned TRPML1 inh 4, TRPV1 potentiator 10, TRPML1 ag -1.4, CtBP-E1A inh 0, D2 potentiator -14 and Six1-Eya2 inh -2.
CCS(=O)(=O)N1CCC2(CC1)OCCN2S(=O)(=O)c1ccccc1 was read as TRPML1 inh -2, TRPML1 ag -0.4, CtBP-E1A inh 0, D2 potentiator -5 and Six1-Eya2 inh 1.
O=C(O)c1ccc2c(=O)n3c(nc2c1)/C(=C/c1ccccc1Br)CC3 was read as TRPML1 inh -12, TRPV1 potentiator -4, TRPML1 ag -0.8, CtBP-E1A inh 19, D2 potentiator -6 and Six1-Eya2 inh -3.
CC(C)(C)c1ccc(C(=O)NCCC(=O)NNC(=O)COc2ccc(F)cc2)cc1 was read as TRPML1 inh 34, TRPML1 ag 0.8, CtBP-E1A inh 0, D2 potentiator -1 and Six1-Eya2 inh 9.
O=C(CNC(=S)N(Cc1ccc(F)cc1)C1CCCCC1)NC1CC1 was read as TRPML1 inh 13, TRPV1 potentiator -16, TRPML1 ag 0.9, CtBP-E1A inh -8, D2 potentiator -4 and Six1-Eya2 inh -9.
Screening CN(C)S(=O)(=O)N1CCN(C(=O)N2CCCCCC2)CC1 returned TRPML1 inh 6, TRPV1 potentiator -2, TRPML1 ag -0.4, CtBP-E1A inh 7, D2 potentiator -5 and Six1-Eya2 inh 6.
Screening CC1CN(Cc2ccccc2)c2nc3c(c(=O)n(CC(=O)O)c(=O)n3C)n2C1 (stereo unspecified) returned TRPML1 inh 24, TRPV1 potentiator -4, TRPML1 ag 0.0, CtBP-E1A inh -12, D2 potentiator -2 and Six1-Eya2 inh -1.
For CCc1cc2c(SCC(=O)Nc3ccc(NC(C)=O)cc3)ncnc2s1 the results were TRPML1 inh 5, TRPV1 potentiator -7, TRPML1 ag -0.5, D2 potentiator -2 and Six1-Eya2 inh -2.

Structures above with four or more nitrogen atoms:
Nc1nnc(CC(=O)N/N=C\c2ccc(-c3cccc(Cl)c3)o2)s1 was read as TRPML1 inh 5, TRPV1 potentiator 9, TRPML1 ag 0.7, CtBP-E1A inh -15, D2 potentiator -15 and Six1-Eya2 inh -14.
Screening O=C(CSc1nncn1-c1cccnc1)Nc1ccccc1[N+](=O)[O-] returned TRPML1 inh -7, TRPV1 potentiator 2, TRPML1 ag -0.5, CtBP-E1A inh -20, D2 potentiator -2 and Six1-Eya2 inh -1.
For CCOc1ccc(CCNC(=O)CCC(=O)Nc2ccc3nc(N4CCN(C)CC4)cc(C)c3c2)cc1OCC the results were TRPV1 potentiator 12, CtBP-E1A inh -14, D2 potentiator -14 and Six1-Eya2 inh -1.
`CC(C)(C)S(=O)N1Cc2cc(C(=O)NCc3ccc4c(c3)OCO4)nc(-c3cccc(-c4ccncc4)c3)c2[C@H]1CCO` (stereo partly specified) gave TRPML1 ag -0.2, CtBP-E1A inh -3, D2 potentiator -2 and Six1-Eya2 inh -8.
For CCCCN(C(=O)Cn1nnc2ccccc21)C(C(=O)NCCOC)c1cccs1 (stereo unspecified) the results were TRPML1 inh -9, TRPV1 potentiator 23, TRPML1 ag 0.7, CtBP-E1A inh 1, D2 potentiator 3 and Six1-Eya2 inh 3.
`COc1ccc(Cc2nc3c([nH]2)c(=O)n(C)c(=O)n3C)cc1OC` gave TRPML1 inh inconclusive, TRPML1 ag 0.1, CtBP-E1A inh 3, D2 potentiator -1 and Six1-Eya2 inh -10.
Screening Cc1cc(N2CCN(C(=O)c3ccco3)CC2)nc(-c2ccccc2)n1 returned TRPML1 inh 4, TRPV1 potentiator 10, TRPML1 ag -1.4, CtBP-E1A inh 0, D2 potentiator -14 and Six1-Eya2 inh -2.
Screening CN(C)S(=O)(=O)N1CCN(C(=O)N2CCCCCC2)CC1 returned TRPML1 inh 6, TRPV1 potentiator -2, TRPML1 ag -0.4, CtBP-E1A inh 7, D2 potentiator -5 and Six1-Eya2 inh 6.
Screening CC1CN(Cc2ccccc2)c2nc3c(c(=O)n(CC(=O)O)c(=O)n3C)n2C1 (stereo unspecified) returned TRPML1 inh 24, TRPV1 potentiator -4, TRPML1 ag 0.0, CtBP-E1A inh -12, D2 potentiator -2 and Six1-Eya2 inh -1.
For CCc1cc2c(SCC(=O)Nc3ccc(NC(C)=O)cc3)ncnc2s1 the results were TRPML1 inh 5, TRPV1 potentiator -7, TRPML1 ag -0.5, D2 potentiator -2 and Six1-Eya2 inh -2.
